# HIV Env fusion = inhibitors of HIV-1 Env-driven cell-cell fusion, primary screen, HeLa-JRFL effector, CEM21 target cells, luciferase; inhibition, % at 12.3 µM; actives 1.1% (n = 360,000);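 active means mean replicate inhibition score of at least 50 and every replicate individually at or above 50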;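 further: 0% = plate neutral controls and 100% = maraviroc near 300 nM; one replicate is shown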
# UUG fidelity = modulators of yeast start codon fidelity, primary screen, whole organism, S. cerevisiae, single point, plate reader; S. cerevisiae UUG-firefly luciferase reporter, luminescence/redox ratio; activity score, % at 18.7 µM; actives 0.13% (n = 350,000);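 active means replicate mean at a twofold rise or more, about +100% in these data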;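 further: firefly luciferase made from a UUG start codon reports start codon fidelity; reporter light over untreated wells divided by growth signal over untreated wells; some hits fall short of that in this replicate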
# * hit, by the source's call; [ ] = remark or other dose. This is a subset; count on the stated rates, not on these rows.
SMILES,HIV Env fusion,UUG fidelity
COc1ccc(S(=O)(=O)Nc2ccc3c(c2)C(=O)N([C@@H](C)CO)C[C@H](C)[C@@H](CN(C)C(=O)NC(C)C)OCCCC[C@@H](C)O3)cc1,-8[16.7 µM],13
COc1ccc(CN(C)C[C@H]2OCCCC[C@H](C)Oc3ccc(NC(=O)Nc4ccc5c(c4)OCO5)cc3C(=O)N([C@@H](C)CO)C[C@@H]2C)cc1,-4[16.7 µM],23
COCC(=O)Nc1ccc2c(c1)C(=O)N(C)C[C@H](OC)[C@H](C)CN(C(=O)CC1CC1)[C@@H](C)CO2,6[16.7 µM],-12
Cc1noc(C)c1NC(=O)Nc1ccc2c(c1)CC(=O)N([C@H](C)CO)C[C@H](C)[C@@H](CN(C)S(=O)(=O)c1ccc(F)cc1)O2,1[16.7 µM],4
C[C@@H]1CCCCO[C@@H](CN(C)S(=O)(=O)c2cccs2)[C@@H](C)CN([C@H](C)CO)C(=O)c2cc(NC(=O)CCC(F)(F)F)ccc2O1,2[16.7 µM],7
C[C@H]1CN([C@@H](C)CO)C(=O)c2cc(NS(=O)(=O)c3cccs3)ccc2O[C@@H]1CN(C)CC1CCCCC1,-23[16.7 µM],0
C[C@@H]1CN([C@@H](C)CO)C(=O)Cc2cc(NC(=O)Cc3cn(C)c4ccccc34)ccc2O[C@@H]1CN(C)Cc1ccc(Oc2ccccc2)cc1,-120[16.7 µM],-5
CCCN(C)C[C@@H]1Oc2cc(C#CC(C)C)ccc2S(=O)(=O)N([C@@H](C)CO)C[C@@H]1C,18[16.7 µM],6
C[C@@H]1CN([C@@H](C)CO)S(=O)(=O)c2ccc(C#CCN(C)C)cc2O[C@H]1CN(C)C(=O)CN(C)C,-34[16.7 µM],11
CN1C(=O)c2cc(NC(=O)C3CCOCC3)ccc2OC[C@H]2O[C@@H](CC(=O)NC3CCCC3)CC[C@@H]21,3[16.7 µM],9
C[C@H](CO)N1C[C@H](C)[C@@H](CN(C)S(=O)(=O)c2ccccc2F)Oc2ncc(/C=C/c3ccccc3)cc2C1=O,5[16.7 µM],-5
CCCc1cn(CC[C@H]2CC[C@@H](NC(=O)C3CCOCC3)[C@@H](CO)O2)nn1,-16[16.7 µM],8
CCCNC(=O)C[C@@H]1CC[C@H]2[C@@H](COc3ccc(NC(=O)COC)cc3C(=O)N2C)O1,31[16.7 µM],-16
Cc1noc(C)c1NC(=O)N(C)C[C@@H]1Oc2ncc(C#CC(C)C)cc2C(=O)N([C@H](C)CO)C[C@H]1C,11[16.7 µM],2
C[C@@H]1CN([C@@H](C)CO)S(=O)(=O)c2ccc(C#Cc3cccnc3)cc2O[C@@H]1CN(C)C(=O)C1CC1,-9[16.7 µM],3
CCCC#Cc1ccc2c(c1)O[C@@H](CN(C)C)[C@@H](C)CN([C@@H](C)CO)S2(=O)=O,3[16.7 µM],1
COCC#Cc1ccc2c(c1)O[C@@H](CN(C)S(=O)(=O)c1ccc(F)cc1)[C@H](C)CN([C@H](C)CO)S2(=O)=O,6[16.7 µM],-11
C[C@@H]1CN([C@H](C)CO)C(=O)c2cccc(NS(=O)(=O)c3cccs3)c2O[C@H]1CN(C)CC1CCCCC1,7[16.7 µM],3
COCC#Cc1ccc2c(c1)O[C@H](CN(C)Cc1ccccc1)[C@H](C)CN([C@@H](C)CO)S2(=O)=O,26[16.7 µM],9
C[C@H]1CN([C@@H](C)CO)S(=O)(=O)c2ccc(-c3cccc(C(=O)N(C)C)c3)cc2O[C@H]1CN(C)C,0[16.7 µM],-19
CC(=O)N(C)C[C@H]1Oc2cc(C#C[C@H](C)O)ccc2S(=O)(=O)N([C@H](C)CO)C[C@@H]1C,12[16.7 µM],-9
COC(=O)C[C@H]1CC[C@@H]2[C@H](COc3ccc(NC(=O)c4cccc(F)c4)cc3C(=O)N2C)O1,0[16.7 µM],-4
O=C(Cc1ccccn1)N[C@@H]1CC[C@H](CCNS(=O)(=O)c2cccc(F)c2)O[C@@H]1CO,-3[16.7 µM],-3
CCCNC(=O)C[C@H]1CC[C@@H]2[C@H](COc3ccc(NC(=O)NCC)cc3C(=O)N2C)O1,3[16.7 µM],-17
CN1C(=O)c2cc(NC(=O)c3cccs3)ccc2OC[C@H]2O[C@H](CC(=O)NCC3CC3)CC[C@H]21,-20[16.7 µM],31

# Seven structures out of the list, sorted by molecular weight, low to high:
SMILES,HIV Env fusion,UUG fidelity
CCCc1cn(CC[C@H]2CC[C@@H](NC(=O)C3CCOCC3)[C@@H](CO)O2)nn1,-16[16.7 µM],8
COCC(=O)Nc1ccc2c(c1)C(=O)N(C)C[C@H](OC)[C@H](C)CN(C(=O)CC1CC1)[C@@H](C)CO2,6[16.7 µM],-12
COCC#Cc1ccc2c(c1)O[C@H](CN(C)Cc1ccccc1)[C@H](C)CN([C@@H](C)CO)S2(=O)=O,26[16.7 µM],9
C[C@@H]1CN([C@@H](C)CO)S(=O)(=O)c2ccc(C#CCN(C)C)cc2O[C@H]1CN(C)C(=O)CN(C)C,-34[16.7 µM],11
CN1C(=O)c2cc(NC(=O)C3CCOCC3)ccc2OC[C@H]2O[C@@H](CC(=O)NC3CCCC3)CC[C@@H]21,3[16.7 µM],9
C[C@@H]1CN([C@H](C)CO)C(=O)c2cccc(NS(=O)(=O)c3cccs3)c2O[C@H]1CN(C)CC1CCCCC1,7[16.7 µM],3
C[C@@H]1CCCCO[C@@H](CN(C)S(=O)(=O)c2cccs2)[C@@H](C)CN([C@H](C)CO)C(=O)c2cc(NC(=O)CCC(F)(F)F)ccc2O1,2[16.7 µM],7

# Following part:
SMILES,HIV Env fusion,UUG fidelity
Cc1nn(C)cc1NC(=O)C[C@@H]1CC[C@@H]2[C@@H](COc3ccc(NC(=O)NC(C)C)cc3C(=O)N2C)O1,22[16.7 µM],-8
Cc1ccccc1-c1cnc2c(c1)C(=O)N([C@H](C)CO)C[C@@H](C)[C@@H](CN(C)CC1CCOCC1)O2,-7[16.7 µM],-10
COc1ccc(CN(C)C[C@H]2OCCCC[C@@H](C)Oc3ccc(NC(=O)Nc4ccc5c(c4)OCO5)cc3C(=O)N([C@H](C)CO)C[C@@H]2C)cc1,14[16.7 µM],-2
C/C=C/c1ccc2c(c1)O[C@@H](CN(C)Cc1cncnc1)[C@H](C)CN([C@@H](C)CO)S2(=O)=O,20[16.7 µM],15
C[C@@H]1CN([C@@H](C)CO)C(=O)Cc2cc(NS(=O)(=O)c3cn(C)cn3)ccc2O[C@@H]1CN(C)S(=O)(=O)c1cccs1,11[16.7 µM],-5
C[C@@H]1CN([C@H](C)CO)C(=O)c2cc(N(C)C)ccc2O[C@H]1CN(C)Cc1ccc(C(F)(F)F)cc1,12[16.7 µM],-2
O=C(C[C@@H]1CC[C@H](NS(=O)(=O)c2ccccc2)[C@@H](CO)O1)N1CCc2ccccc2C1,14[16.7 µM],-7
O=C(N[C@@H]1CC[C@@H](CCNC(=O)C2CCC2)O[C@H]1CO)c1ccncc1,1[16.7 µM],7
C[C@@H]1CN([C@H](C)CO)C(=O)c2cc(-c3ccncc3)cnc2O[C@H]1CN(C)C(=O)C1CCOCC1,2[16.7 µM],-13
C[C@@H]1CN([C@H](C)CO)S(=O)(=O)c2ccc(-c3cccnc3)cc2O[C@H]1CN(C)C(=O)c1cccc(F)c1,15[16.7 µM],11
COc1ccc(NC(=O)N(C)C[C@@H]2Oc3ncc(C#CC(C)C)cc3C(=O)N([C@@H](C)CO)C[C@@H]2C)cc1,-3[16.7 µM],26
O=C(C[C@H]1C=C[C@@H](NC(=O)c2ccncc2)[C@H](CO)O1)NCCc1ccncc1,4[16.7 µM],15
C[C@@H]1CCCCO[C@@H](CN(C)C(=O)c2ccccc2)[C@@H](C)CN([C@@H](C)CO)C(=O)c2cc(NC(=O)CCC(F)(F)F)ccc2O1,20[16.7 µM],26
C[C@@H]1CN([C@@H](C)CO)C(=O)Cc2cc(NS(=O)(=O)c3ccccc3)ccc2O[C@H]1CN(C)Cc1ccc(Cl)c(Cl)c1,88*[16.7 µM],9
Cc1ccc(S(=O)(=O)N[C@H]2CC[C@@H](CC(=O)NCc3ccccc3F)O[C@@H]2CO)cc1,-1[16.7 µM],-2
C[C@@H]1CCCCO[C@@H](CN(C)C(=O)C2CCCCC2)[C@@H](C)CN([C@H](C)CO)C(=O)c2cc(NS(=O)(=O)c3cccs3)ccc2O1,-19[16.7 µM],-18
C[C@@H]1CCCCO[C@@H](CN(C)C(=O)CCC(F)(F)F)[C@H](C)CN([C@H](C)CO)C(=O)c2cc(NS(=O)(=O)c3cccs3)ccc2O1,-9[16.7 µM],19
CO[C@H]1CN(C)C(=O)c2ccc(NC(C)=O)cc2OC[C@H](C)N(CC2CC2)C[C@H]1C,-4[16.7 µM],-8
O=C(C[C@H]1C=C[C@@H](NC(=O)C2CCC2)[C@@H](CO)O1)NCc1ccccc1Cl,1[16.7 µM],-8
C[C@@H]1CN([C@@H](C)CO)S(=O)(=O)c2ccc(C#CCN(C)C)cc2O[C@H]1CN(C)Cc1ccccc1F,-9[16.7 µM],9
C[C@H](CO)N1C[C@H](C)[C@@H](CN(C)Cc2ccc(-c3ccccc3)cc2)Oc2c(NC(=O)c3ccc(-c4nccs4)cc3)cccc2C1=O,48[16.7 µM],-5
C[C@@H]1CN([C@@H](C)CO)C(=O)c2cc(NS(=O)(=O)c3cn(C)cn3)ccc2O[C@@H](C)CCCCO[C@@H]1CN(C)C(=O)C1CCCCC1,-1[16.7 µM],-4
CO[C@@H]1CN(C)C(=O)c2ccc(NS(C)(=O)=O)cc2OC[C@H](C)N(Cc2ccccc2)C[C@H]1C,11[16.7 µM],2
Cc1noc(C)c1NC(=O)N(C)C[C@@H]1Oc2ccc(NC(=O)Nc3ccc(F)cc3)cc2C(=O)N([C@H](C)CO)C[C@@H]1C,7[16.7 µM],-2
CC(C)NC(=O)N[C@@H]1CC[C@@H](CC(=O)N2CCCCC2)O[C@@H]1CO,-12[16.7 µM],1
# (further entries)
SMILES,HIV Env fusion,UUG fidelity
C[C@@H]1CN([C@H](C)CO)S(=O)(=O)c2ccc(C#CC3(O)CCCC3)cc2O[C@@H]1CN(C)C(=O)Cc1cccnc1,-210[16.7 µM],-1
COc1cccc(-c2ccc3c(c2)O[C@H](CN(C)C)[C@@H](C)CN([C@@H](C)CO)S3(=O)=O)c1,10[16.7 µM],10
C[C@@H]1CN([C@@H](C)CO)C(=O)Cc2cc(NC(=O)C3CCCCC3)ccc2O[C@@H]1CN(C)Cc1ccc(C(=O)O)cc1,-18[16.7 µM],6
Cc1ccc(S(=O)(=O)N(C)C[C@H]2OCCCC[C@H](C)Oc3ccc(NC(=O)c4ccncc4)cc3C(=O)N([C@H](C)CO)C[C@@H]2C)cc1,-53[16.7 µM],-5
COc1ccccc1-c1cnc2c(c1)C(=O)N([C@@H](C)CO)C[C@@H](C)[C@@H](CN(C)C(=O)c1ccncc1)O2,0[16.7 µM],-1
C[C@H]1CN([C@@H](C)CO)C(=O)Cc2cc(NC(=O)Nc3ccccc3)ccc2O[C@@H]1CN(C)S(=O)(=O)c1cccs1,12[16.7 µM],3
CCC(=O)N(C)C[C@H]1Oc2cc(-c3ccccc3)ccc2S(=O)(=O)N([C@H](C)CO)C[C@H]1C,4[16.7 µM],5
CO[C@H]1CN(C)C(=O)c2cc(NC(C)=O)ccc2OC[C@@H](C)N(C(=O)C2CC2)C[C@H]1C,-7[16.7 µM],-5
C[C@H]1CN([C@@H](C)CO)C(=O)c2cccc(NC(=O)Nc3cccc4ccccc34)c2O[C@@H]1CN(C)C(=O)Nc1ccccc1,-22[16.7 µM],0
COc1ccc(NC(=O)Nc2ccc3c(c2)C(=O)N([C@@H](C)CO)C[C@@H](C)[C@@H](CN(C)C(=O)C2CCCCC2)OCCCC[C@H](C)O3)cc1,14[16.7 µM],-4
CCCC#Cc1cnc2c(c1)C(=O)N([C@H](C)CO)C[C@H](C)[C@@H](CN(C)C(=O)NC1CCCC1)O2,4[16.7 µM],3
CN1CCN(C(=O)C[C@H]2CC[C@H]3[C@@H](COC[C@@H](O)CN3S(=O)(=O)c3cccc(F)c3)O2)CC1,9[16.7 µM],16
C[C@H](CO)N1C[C@H](C)[C@H](CN(C)Cc2ccccc2)Oc2c(NC(=O)c3ccncc3)cccc2C1=O,9[16.7 µM],-13
C[C@H]1CN([C@@H](C)CO)C(=O)c2cc(C#Cc3ccc(F)cc3)cnc2O[C@@H]1CN(C)CC1CCOCC1,-1[16.7 µM],26
Cc1noc(C)c1NC(=O)Nc1ccc2c(c1)C(=O)N([C@@H](C)CO)C[C@@H](C)[C@@H](CN(C)S(=O)(=O)c1ccc(Cl)cc1)O2,-22[16.7 µM],-4
C[C@H](CO)N1C[C@H](C)[C@H](CN(C)Cc2ccccc2F)Oc2ncc(C#CCN(C)C)cc2C1=O,-2[16.7 µM],-21
C[C@H](CO)N1C[C@H](C)[C@@H](CN(C)S(=O)(=O)c2cn(C)cn2)OCCCC[C@H](C)Oc2ccc(NC(=O)CCCCCC(=O)Nc3ccccc3N)cc2C1=O,6[16.7 µM],-7
O=C(C[C@H]1CC[C@H]2[C@@H](COC[C@@H](O)CN2Cc2nccs2)O1)NCc1ccccc1Cl,7[16.7 µM],-9
C[C@H]1CN([C@@H](C)CO)C(=O)c2cc(NC(=O)Nc3ccccc3)ccc2O[C@@H]1CN(C)S(=O)(=O)c1ccccc1,28[16.7 µM],7
COc1ccc(CN(C)C[C@@H]2OCCCC[C@H](C)Oc3ccc(NC(=O)Nc4ccc5c(c4)OCO5)cc3C(=O)N([C@H](C)CO)C[C@@H]2C)cc1,31[16.7 µM],-2

# Bioassay records: PubChem BioAssay, Broad Institute
